MT1-MMP act inh = MT1-MMP (human) activation inhibition. AID 651647. actives 0.061% (n = 360,000). P50281. HT1080 RFP-PRO-GFP cells, GFP/RFP ratio fluorescence, overnight; percent of plate control window, DMSO zero. GFP/RFP ratio change, % at 20 µM;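 active = GFP/RFP ratio change of at least 30% with cell ATP level not reduced by more than half and red fluorescence within 50% of control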; note: strong numbers were not always called active
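Assay system: HT1080 RFP-PRO-GFP cells. Benchmarks: DMSO vehicle wells and RFP-L50D-GFP reporter cell wells. Times: overnight cell settling, then overnight compound exposure, 37 °C, 5% CO2. Compound: 20 µM single dose, 1% DMSO. Read-out basis: GFP/RFP fluorescence ratio.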
PABP FP inh = PABP-poly(A) binding inhibition; inhibition, % at 35 µM; PABP-poly(A) RNA binding, fluorescence polarization; actives 1% (n = 290,000);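 active = 50% or more with normal probe brightness, or confirmed in later tests; about a fifth of its hits are not listed in these tables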;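 note: calls also rest on retests at 20 µM and on dose response follow-up; controls were probe without protein and protein plus probe with vehicle; some compounds called inactive have numbers as strong as hits; many hits fall short of the cut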
Target sequence (P11940 whole entry, looked up): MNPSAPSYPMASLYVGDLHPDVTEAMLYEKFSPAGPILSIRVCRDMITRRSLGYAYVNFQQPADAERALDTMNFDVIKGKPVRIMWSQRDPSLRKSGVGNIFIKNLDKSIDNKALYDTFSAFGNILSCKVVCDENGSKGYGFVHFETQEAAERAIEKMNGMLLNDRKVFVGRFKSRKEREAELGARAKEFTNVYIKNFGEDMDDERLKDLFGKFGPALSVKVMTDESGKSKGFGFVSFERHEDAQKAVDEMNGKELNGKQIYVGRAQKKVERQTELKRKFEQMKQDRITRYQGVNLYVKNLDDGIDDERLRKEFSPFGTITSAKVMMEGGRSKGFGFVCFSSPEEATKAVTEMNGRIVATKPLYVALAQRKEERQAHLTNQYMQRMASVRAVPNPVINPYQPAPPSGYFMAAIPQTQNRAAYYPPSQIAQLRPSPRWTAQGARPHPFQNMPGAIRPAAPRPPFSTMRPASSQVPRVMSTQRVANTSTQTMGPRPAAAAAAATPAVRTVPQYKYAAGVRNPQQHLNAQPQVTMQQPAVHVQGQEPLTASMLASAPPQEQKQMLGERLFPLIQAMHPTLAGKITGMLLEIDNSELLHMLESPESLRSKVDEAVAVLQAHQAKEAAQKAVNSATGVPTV
Env fusion inh = inhibitors of HIV Env-mediated cell fusion; inhibition, % at 12.3 µM; actives 1.1% (n = 360,000); HeLa-JRFL Env/CEM21 cell fusion, luciferase;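 active = mean replicate inhibition score of at least 50 and every replicate individually at or above 50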;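 note: 0% = plate neutral controls and 100% = maraviroc near 300 nM; one replicate is shown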
Rce1 inhib = yeast Ras-converting enzyme inhibition | Q03530 | yeast membranes, quenched prenylated peptide cleavage fluorescence | calls only | actives 0.27% (n = 290,000);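 active = fall in fluorescence gain of 50% or more versus controls, with final raw signal at or below 3038400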;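 note: plate controls were neutral control wells for no effect and wells lacking membranes for full effect; tested at 10 µM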
Target sequence (Q03530 whole entry, looked up): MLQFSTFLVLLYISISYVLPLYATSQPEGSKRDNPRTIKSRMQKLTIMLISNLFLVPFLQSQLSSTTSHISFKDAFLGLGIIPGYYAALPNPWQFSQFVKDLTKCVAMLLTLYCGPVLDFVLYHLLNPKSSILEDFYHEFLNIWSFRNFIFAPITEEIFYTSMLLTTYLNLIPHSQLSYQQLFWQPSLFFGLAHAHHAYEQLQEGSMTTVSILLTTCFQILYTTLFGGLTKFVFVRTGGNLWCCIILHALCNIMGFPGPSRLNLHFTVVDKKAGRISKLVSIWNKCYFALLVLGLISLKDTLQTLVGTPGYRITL
CSC inhib = cancer stem cell inhibition. cancer stem cell-like cells viability, luminescence. inhibition, % at 7.5 µM. actives 1.1% (n = 300,000);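 active = mean at 75% or more and at least half the replicates too; tested in HMLE shEcad cells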;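 note: 0% = median of negative and 100% = median of positive control wells; the first replicate is given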
UUG fidelity = modulators of start codon recognition fidelity in yeast | S. cerevisiae UUG-firefly luciferase reporter, luminescence/redox ratio | activity score, % at 18.7 µM | actives 0.13% (n = 350,000) | AID 602363;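 active = replicate mean at a twofold rise or more, about +100% in these data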;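 note: firefly luciferase made from a UUG start codon reports start codon fidelity; reporter light over untreated wells divided by growth signal over untreated wells; some hits fall short of that in this replicate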
eIF4H FP inh = inhibitors of RNA binding by human eIF4H; eIF4H fluorescence polarization binding assay; inhibition, % at 35 µM; actives 0.94% (n = 290,000); AID 2012;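 active = 50% or more with normal probe brightness, or confirmed in later tests; about a fifth of its hits are not listed in these tables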;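 note: calls also rest on retests at 20 µM and on dose response follow-up; 0% = protein and probe with vehicle and 100% = probe without protein; strong numbers were not always called active; many hits fall short of the cut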
MT1-MMP act inh RFP = recorded beside MT1-MMP act inh, whose call it bears; RFP signal change, %; measured here: RFP expression control read;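 0 = vehicle wells; hits needed this value within 50% of zero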
* = called active by the depositor.

For COc1cccc(CN(C)C(=S)Nc2ccc(C)c(C)c2)c1 the results were MT1-MMP act inh 1, PABP FP inh 8, Env fusion inh -10, Rce1 inhib inactive, CSC inhib -1, eIF4H FP inh 6 and MT1-MMP act inh RFP 2.
`CCNC(=O)/C(=C\C=C\c1ccccc1)NC(=O)c1ccc(Br)o1` gave MT1-MMP act inh 0, PABP FP inh 3, Rce1 inhib inactive, CSC inhib 8, eIF4H FP inh 10 and MT1-MMP act inh RFP -6.
CCC(Sc1nc2ncccc2[nH]1)C(=O)NC1CCCC1 (stereo not drawn) was read as MT1-MMP act inh 2, PABP FP inh -14, Env fusion inh 1, Rce1 inhib inactive, CSC inhib -1, UUG fidelity -11, eIF4H FP inh -4 and MT1-MMP act inh RFP 5.
`COc1cc2cnc(-c3ccccc3F)cc2cc1OC` gave MT1-MMP act inh -6, Env fusion inh 23, CSC inhib -2, UUG fidelity -1 and MT1-MMP act inh RFP -3.
For CCCCCCCCCCS(=O)(=O)N/N=C/c1ccccc1OC the results were MT1-MMP act inh 2, PABP FP inh 6, Env fusion inh 8, Rce1 inhib inactive, CSC inhib 22, UUG fidelity -11, eIF4H FP inh -3 and MT1-MMP act inh RFP 4.
OCC#Cc1ncc(C(F)(F)F)cc1Cl was read as MT1-MMP act inh 0, PABP FP inh -1, Env fusion inh 9, Rce1 inhib inactive, eIF4H FP inh -4 and MT1-MMP act inh RFP 0.
`CCCN1C(=O)c2cc(C(=O)Nc3ccccc3OC)ccc2C1Nc1ccccc1OC` (stereo not drawn) gave PABP FP inh 17, Env fusion inh 10, Rce1 inhib inactive, CSC inhib -8 and eIF4H FP inh 8.
O=C(c1cccc(S(=O)(=O)NCc2ccccc2)c1)N1CCN(c2ccccc2)CC1 was read as MT1-MMP act inh -6, Env fusion inh 15, CSC inhib 41, UUG fidelity 7 and MT1-MMP act inh RFP -11.
For COc1ccc(N2CCCn3c2nc2c3c(=O)n(CCc3ccccc3)c(=O)n2C)cc1 the results were MT1-MMP act inh 0, PABP FP inh 3, CSC inhib -3, UUG fidelity -6, eIF4H FP inh 2 and MT1-MMP act inh RFP -5.
CC(C(=O)O)N1C(=O)CSC1=S (stereo not drawn) was read as MT1-MMP act inh 49, PABP FP inh 5, Rce1 inhib inactive, CSC inhib 5, UUG fidelity -1, eIF4H FP inh -8 and MT1-MMP act inh RFP 89.
`Cc1cc(C)n(-c2ccc(C(=O)OCC(=O)NC(c3ccccc3)c3ccccc3)cc2)n1` gave MT1-MMP act inh 7, PABP FP inh -7, Env fusion inh 13, Rce1 inhib inactive, eIF4H FP inh 3 and MT1-MMP act inh RFP 9.
Screening CC(C)C(NC(=O)OCc1ccccc1)C(=O)NCC(=O)OC(C)(C)C (stereo not drawn) returned MT1-MMP act inh 16, PABP FP inh 1, Rce1 inhib inactive, CSC inhib -10, UUG fidelity 7, eIF4H FP inh 3 and MT1-MMP act inh RFP 0.
For O=C1c2cc([N+](=O)[O-])cc3cc([N+](=O)[O-])cc(c23)C(=O)N1c1ccccn1 the results were MT1-MMP act inh 22, PABP FP inh 6, Rce1 inhib inactive, CSC inhib 32, UUG fidelity -29, eIF4H FP inh -1 and MT1-MMP act inh RFP 0.
`CCNC(=S)NC1CC2CCCC(C1)N2Cc1ccco1` (stereo not drawn) gave MT1-MMP act inh -1, PABP FP inh -3, Env fusion inh -36, Rce1 inhib inactive, CSC inhib -14, UUG fidelity -27, eIF4H FP inh -13 and MT1-MMP act inh RFP 4.
For Cc1cccc(C)c1Nc1c(-c2ccsc2)nc2ncccn12 the results were MT1-MMP act inh -3, PABP FP inh -7, Env fusion inh -59, Rce1 inhib inactive, CSC inhib -24, UUG fidelity -25, eIF4H FP inh -4 and MT1-MMP act inh RFP 4.
`CC(C)(C)C(=O)NNC(=O)C1CC1(c1ccccc1)c1ccccc1` (stereo not drawn) gave MT1-MMP act inh 2, PABP FP inh 5, Env fusion inh 4, Rce1 inhib inactive, CSC inhib -12, UUG fidelity 3, eIF4H FP inh 18 and MT1-MMP act inh RFP 5.
`CCC(=O)NCCSc1c[nH]c2ccccc12` gave MT1-MMP act inh 0, PABP FP inh 9, Rce1 inhib inactive, CSC inhib -4, UUG fidelity -8, eIF4H FP inh 5 and MT1-MMP act inh RFP 5.
Screening CC(C)C(=O)N1CCCC1(C)C(=O)N(C)Cc1cccc2ccccc12 (stereo not drawn) returned MT1-MMP act inh -6, Env fusion inh -3, UUG fidelity -11 and MT1-MMP act inh RFP 2.
`CCOc1ccccc1Nc1ccc(C(=O)O)cc1[N+](=O)[O-]` gave MT1-MMP act inh 1, PABP FP inh -16, Env fusion inh 1, Rce1 inhib inactive, CSC inhib -5, UUG fidelity -21, eIF4H FP inh -13 and MT1-MMP act inh RFP -3.
CCOC(=O)c1c(NC(=O)C(NCCN(C)C)c2ccccc2)sc2c1CCCC2 (stereo not drawn) was read as MT1-MMP act inh -2, PABP FP inh -6, Env fusion inh -2, Rce1 inhib inactive, CSC inhib 27, UUG fidelity -4, eIF4H FP inh -3 and MT1-MMP act inh RFP -5.

Filtered by structure, those above containing a tert-butyl group.
Screening CC(C)C(NC(=O)OCc1ccccc1)C(=O)NCC(=O)OC(C)(C)C (stereo not drawn) returned MT1-MMP act inh 16, PABP FP inh 1, Rce1 inhib inactive, CSC inhib -10, UUG fidelity 7, eIF4H FP inh 3 and MT1-MMP act inh RFP 0.
`CC(C)(C)C(=O)NNC(=O)C1CC1(c1ccccc1)c1ccccc1` (stereo not drawn) gave MT1-MMP act inh 2, PABP FP inh 5, Env fusion inh 4, Rce1 inhib inactive, CSC inhib -12, UUG fidelity 3, eIF4H FP inh 18 and MT1-MMP act inh RFP 5.

Carrying on:
Cc1ccc(C(=O)NC(C)c2ccc3c(c2)OCO3)s1 (stereo not drawn) was read as MT1-MMP act inh -6, PABP FP inh 2, Env fusion inh -2, Rce1 inhib inactive, CSC inhib -13, eIF4H FP inh -3 and MT1-MMP act inh RFP -5.
Screening Cn1c(=O)c(=O)n(C)c2cc(N3CCCC3)c(NS(=O)(=O)c3ccc(Cl)cc3)cc21 returned MT1-MMP act inh 2, PABP FP inh 21, Env fusion inh 9, Rce1 inhib inactive, CSC inhib -13, UUG fidelity -14, eIF4H FP inh 2 and MT1-MMP act inh RFP 3.
Screening COc1ccc2c(c1OC)C(=O)N(c1ccc(C)cc1)C2=O returned MT1-MMP act inh 0, PABP FP inh -7, Env fusion inh -4, Rce1 inhib inactive, CSC inhib -1, UUG fidelity -10, eIF4H FP inh -5 and MT1-MMP act inh RFP 0.
For CC1(OC(=O)C2CCCC2)C(=O)C=C2C=C(c3ccsc3)N(Cc3ccc4c(c3)OCO4)C=C2C1=O (stereo not drawn) the results were MT1-MMP act inh -1, PABP FP inh 11, Env fusion inh -39, Rce1 inhib inactive, CSC inhib -14, UUG fidelity 16, eIF4H FP inh 22 and MT1-MMP act inh RFP 1.
`COC(=O)c1cc(S(=O)(=O)NCc2cc(OC)c(OC)c(OC)c2)cn1C` gave MT1-MMP act inh 0, PABP FP inh 4, Env fusion inh 1, Rce1 inhib inactive, CSC inhib -11, UUG fidelity -10, eIF4H FP inh 11 and MT1-MMP act inh RFP 1.
Cc1cc(C)c2cc(C(c3nnnn3CC3CCCO3)N3CCN4CCCC4C3)c(=O)[nH]c2c1 (stereo not drawn) was read as MT1-MMP act inh -1, PABP FP inh 7, Rce1 inhib inactive, CSC inhib -16, UUG fidelity 0, eIF4H FP inh 6 and MT1-MMP act inh RFP 0.
O=C(NCc1n[nH]c(=S)n1-c1ccccc1)c1ccc(S(=O)(=O)N2CCCCC2)cc1 was read as MT1-MMP act inh -1, PABP FP inh 2, Env fusion inh 2, Rce1 inhib inactive, eIF4H FP inh -15 and MT1-MMP act inh RFP 0.
Screening CC(=O)CCN1CCOCC1 returned MT1-MMP act inh 2, PABP FP inh 3, Rce1 inhib inactive, CSC inhib 5, UUG fidelity -25, eIF4H FP inh -5 and MT1-MMP act inh RFP 5.
`COc1ccc(-n2c(C)cc(C(=O)COC(=O)c3cc(NC(=O)c4cccs4)c(OC)c(OC)c3)c2C)cc1` gave MT1-MMP act inh 2, PABP FP inh -9, Env fusion inh 7, Rce1 inhib inactive, UUG fidelity -4, eIF4H FP inh -15 and MT1-MMP act inh RFP 3.
For Cc1cc(C)c2c(=O)n(CC(=O)Nc3cccc(Cl)c3C)sc2n1 the results were MT1-MMP act inh -2, PABP FP inh 5, Env fusion inh -6, Rce1 inhib inactive, CSC inhib -2, UUG fidelity -22, eIF4H FP inh 1 and MT1-MMP act inh RFP 1.
CC(=O)c1c(O)cc2c3c1OC(C)(C)C1CCC(C)(CC31)O2 (stereo not drawn) was read as MT1-MMP act inh -14, Env fusion inh 69*, UUG fidelity -19 and MT1-MMP act inh RFP -8.
`CNC(=O)C(=O)N/N=C/c1ccc(Br)cc1` gave MT1-MMP act inh 5, PABP FP inh -4, Env fusion inh -6, Rce1 inhib inactive, CSC inhib 10, eIF4H FP inh -10 and MT1-MMP act inh RFP 4.
`COc1ccc(-c2nnc(NC(=O)CSc3ccc(C)cc3)s2)cc1OC` gave MT1-MMP act inh 0, PABP FP inh -3, Env fusion inh 2, Rce1 inhib inactive, CSC inhib -7, eIF4H FP inh 5 and MT1-MMP act inh RFP -3.
CCCN(CCO)Cc1cccc(Oc2ccccc2)c1 was read as MT1-MMP act inh 1, PABP FP inh 3, Env fusion inh -21, CSC inhib 6, UUG fidelity -6, eIF4H FP inh 3 and MT1-MMP act inh RFP 3.
`Cc1ccccc1Nc1nc(N)nc(COC(=O)C(NC(=O)c2ccco2)C(C)C)n1` (stereo not drawn) gave MT1-MMP act inh -5, PABP FP inh -3, Env fusion inh 4, Rce1 inhib inactive, CSC inhib 1, UUG fidelity -13, eIF4H FP inh -4 and MT1-MMP act inh RFP -6.
For CCCCCCn1c2c(c(=N)c3c1CCC3)CCC2 the results were MT1-MMP act inh -14, PABP FP inh -1, Env fusion inh 81*, Rce1 inhib inactive, CSC inhib 25, eIF4H FP inh -12 and MT1-MMP act inh RFP -22.
Screening OCCN1CCN(c2nccn3ccnc23)CC1 returned MT1-MMP act inh 7, Env fusion inh 6, UUG fidelity -18 and MT1-MMP act inh RFP 3.
For CCc1ccc(N2CC(C(=O)OCC(=O)NNC(=O)c3ccccc3)CC2=O)cc1 (stereo not drawn) the results were MT1-MMP act inh 2, Env fusion inh -11, Rce1 inhib inactive, CSC inhib -8, UUG fidelity 1 and MT1-MMP act inh RFP -1.
Screening CC(C)c1nc(CNC(=O)C2CCC(=O)N(Cc3ccc(Cl)cc3)C2)no1 (stereo not drawn) returned MT1-MMP act inh -2, PABP FP inh 8, Env fusion inh 2, Rce1 inhib inactive, CSC inhib -1, UUG fidelity 0, eIF4H FP inh -2 and MT1-MMP act inh RFP 1.
`Cn1c2c(c(=O)n3ncnc13)CCCC2` gave MT1-MMP act inh 2, PABP FP inh 5, Env fusion inh -11, Rce1 inhib inactive, CSC inhib -5, eIF4H FP inh -13 and MT1-MMP act inh RFP -1.
NC(=O)c1nsc(C(=O)N(CC(=O)NC2CCCCC2)c2cccc(F)c2)c1N was read as MT1-MMP act inh 1, PABP FP inh 6, Env fusion inh 1, Rce1 inhib inactive, CSC inhib -7, eIF4H FP inh -7 and MT1-MMP act inh RFP 0.
CCSc1nc(C2CC2)cc(-c2cccs2)c1C#N was read as MT1-MMP act inh -1, PABP FP inh 3, Env fusion inh -30, Rce1 inhib inactive, CSC inhib 47, UUG fidelity -25, eIF4H FP inh -6 and MT1-MMP act inh RFP 0.
For N#C/C=C(/N)c1ccc(Br)cc1 the results were MT1-MMP act inh 0, PABP FP inh -2, Rce1 inhib inactive, CSC inhib 19, UUG fidelity -19, eIF4H FP inh -6 and MT1-MMP act inh RFP 1.
